Compound activity as filed in PubChem.
HCMV NEC inh: inhibitors of HCMV UL50-UL53 nuclear egress complex interaction. HTRF UL50-UL53 interaction, normalized percent inhibition. inhibition, % (test concentration not listed). 190,000 tested, 0.15% active;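 active = both replicates at 50% or more, plus weaker picks with an unusually low signal ratio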;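 also: stock transfer was 100 nL into about 20 µL; 0% = negative control wells and 100% = wells with untagged competitor protein; inactives centre near -12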
Sa growth inh: inhibitors of Staphylococcus aureus growth at 42 °C; S. aureus RN4220 growth, OD600, 20 h; hits give low values; relative growth, % (no concentration beside the values); 170,000 tested, 0.53% active; AID 720641;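 active = growth at 42 °C up to 50% and 20 or more points under that at 30 °C, or under 10% at both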;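 also: 300 nL library stock went into each well; scaled to the means of positive and negative controls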
GIV-Gai inh: GIV-Galpha-i interaction inhibition; AID 1224905; P08753; Galpha-i3/FITC-GIV peptide fluorescence polarization, 90 min; hits give low values; scaled: aluminum fluoride 0%, vehicle 100%; 210,000 tested, 0.42% active; percent of control (FP), % (concentration not given with the values);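 active = replicate mean at 85% of control or lower, very high polarization wells dropped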;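 also: wells of about 15 µL received 100 nL stock; the first replicate is given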
Target sequence (P08753 whole entry, looked up): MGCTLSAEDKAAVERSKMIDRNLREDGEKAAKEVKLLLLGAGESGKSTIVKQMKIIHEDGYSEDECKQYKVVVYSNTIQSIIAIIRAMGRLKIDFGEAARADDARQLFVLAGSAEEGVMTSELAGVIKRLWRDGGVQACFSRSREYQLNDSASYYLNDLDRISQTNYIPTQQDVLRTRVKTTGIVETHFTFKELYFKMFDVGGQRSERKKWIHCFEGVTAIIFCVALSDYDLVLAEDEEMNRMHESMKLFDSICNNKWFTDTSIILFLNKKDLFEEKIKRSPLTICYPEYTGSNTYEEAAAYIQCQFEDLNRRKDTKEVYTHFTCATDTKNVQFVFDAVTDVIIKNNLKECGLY
Sa growth inh second temp: also measured in Sa growth inh; calls as there; relative growth, %; measured here: growth at 30 °C;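 optical density after 20 h as mean of two plates; 100% = untreated growth and lower means inhibition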
Active calls of the source: *; . = no result given; & = joins results of further samples. Random draw from the library (roughly 0.83% active in at least one column).

Sample of the layout, two compounds:
SMILES	HCMV NEC inh	Sa growth inh	Sa growth inh second temp	GIV-Gai inh
Cc1ccc(CNC(=O)C2CCCN(S(=O)(=O)c3c(C)noc3/C=C/N(C)C)C2)cc1 (stereo not given)	-4	98	89	104
COc1ccc(-c2noc(CSc3nc4ccccc4[nH]3)n2)cc1OC	-7	116	84	108

The listing, repeating the preview:
SMILES	HCMV NEC inh	Sa growth inh	Sa growth inh second temp	GIV-Gai inh
Cc1ccc(CNC(=O)C2CCCN(S(=O)(=O)c3c(C)noc3/C=C/N(C)C)C2)cc1 (stereo not given)	-4	98	89	104
COc1ccc(-c2noc(CSc3nc4ccccc4[nH]3)n2)cc1OC	-7	116	84	108
CCOc1ccccc1CNCCNC(=O)c1nonc1N	11	98	101	109
Cc1[nH]c(C(=O)N2CCCC(C(=O)NC(C)C)C2)c(C)c1C(=O)OC(C)C (stereo not given)	-16	.	.	94
CCn1c(CNC(=O)N(c2ccccc2)c2ccccc2)nnc1SC	14	89	102	105
S=C(NCc1ccco1)NCC1CCCO1 (stereo not given)	-17	111	101	115
Cc1cc(/C=N/n2c(SCC(=O)O)nnc2C2CCCCC2)c(C)n1CC(C)C	-15	103	89	.
COc1cc(NC(=O)C2=C(N3CCOCC3)/C(=C\c3ccc(N(C)C)cc3)CCC2)cc(OC)c1OC	14	101	103	.
CN1C(=O)/C(=C/c2ccc(C(=O)NCc3ccccc3)cc2)Oc2ccccc21	.	102	97	103
c1ccc(-c2nnc(-c3cccc4ccccc34)o2)cc1	-32	98	85	98
O/N=C(\c1ccccc1)C(O)c1ccccc1 (stereo not given)	-31	77	97	.
Cc1cc(C)cc(-n2c(C)cc(C(=O)C(=O)Nc3nnc(C)s3)c2C)c1	7	94	83	96

No new results follow: an excerpt of the list.
SMILES	HCMV NEC inh	Sa growth inh	Sa growth inh second temp	GIV-Gai inh
S=C(NCc1ccco1)NCC1CCCO1 (stereo not given)	-17	111	101	115
Cc1cc(/C=N/n2c(SCC(=O)O)nnc2C2CCCCC2)c(C)n1CC(C)C	-15	103	89	.
COc1cc(NC(=O)C2=C(N3CCOCC3)/C(=C\c3ccc(N(C)C)cc3)CCC2)cc(OC)c1OC	14	101	103	.
CN1C(=O)/C(=C/c2ccc(C(=O)NCc3ccccc3)cc2)Oc2ccccc21	.	102	97	103
c1ccc(-c2nnc(-c3cccc4ccccc34)o2)cc1	-32	98	85	98

The listing continues.
SMILES	HCMV NEC inh	Sa growth inh	Sa growth inh second temp	GIV-Gai inh
CCOc1ccccc1-c1nc(CSc2nc3ccccc3c(=O)n2C)c(C)o1	-33	.	.	106
CCN(CC)C(=O)c1csc(-c2ccccc2)c1-c1ccccc1	-10	109	85	97
Cc1cc(C)n(-c2nc3ccccc3nc2N2CCN(S(=O)(=O)c3ccccc3)CC2)n1	-32	88	81	108
O=C(/C=C\c1ccccc1)NC1CC(=O)N(c2ccccc2)C1 (stereo not given)	.	100	96	101
O=C(N/N=C1/CSC(=O)N1Cc1cccs1)c1cccs1	-22	123	94	107
NC(=O)COC(=O)c1cccc(S(=O)(=O)N2CCc3ccccc32)c1	-11	108	89	.
O=C(CCCn1c(=O)[nH]c2ccsc2c1=O)NC1CCN(Cc2ccccc2)CC1	-25	.	.	106
CNC(=O)CSCc1c(C)noc1C	-19	83	90	.
CC1(C(=O)NCc2ccc(Cl)cc2)Cn2c(nc3ccccc32)C(=O)N1C1CC1 (stereo not given)	-5	.	.	99
O=C(CCS(=O)(=O)c1nc(-c2ccc3c(c2)OCO3)cc(C(F)(F)F)n1)Nc1ccccc1C(F)(F)F	-23	102	86	109
O=C(NC(C(=O)O)c1ccccc1)c1cccs1 (stereo not given)	1	107	96	108
N#CCNc1ccccc1	-8	89	94	.
CCN1CCN(C(=O)c2ccc(CNS(=O)(=O)c3ccc(Br)cc3)cc2)CC1	4	104	100	99
CCOc1cc(C)nc(NCCc2ccc(OC)c(OC)c2)n1	-3	93	86	101
Cn1c(NCCO)nc2c1c(=O)n(Cc1cccc(F)c1)c(=O)n2C	-34	107	87	108
COC(=O)c1cc(C(=O)c2ccccc2)n2c(=O)/c(=C\N(C)C)sc12	-18	103	101	.
COc1cc2nc(NCc3ccccc3)n3nc(-c4ccccc4)nc3c2cc1OC	5	114	95	102
COC(=O)c1ccc2c(c1)N(Cc1ccccc1)C(=O)c1ccccc1S2(=O)=O	.	114	98	105
O=C(CCC1N=C2c3ccccc3N=C(SCc3cccc(Cl)c3)N2C1=O)NCCc1ccccc1 (stereo not given)	-2	95	80	102
CSc1nc2c(c(=O)[nH]1)C(c1ccc3c(c1)OCO3)CC(=O)N2 (stereo not given)	-35	105	96	99
COc1ccc(N(CC(=O)N2CCN(c3ccccc3OC)CC2)S(=O)(=O)c2ccccc2[N+](=O)[O-])c(OC)c1	-17	.	.	100
CCOc1cc(Cl)c(S(=O)(=O)n2cc(C)nc2CC)cc1Cl	7	98	90	104
N#C/C(=C\c1ccc(C(F)(F)F)cc1)c1cccc(C(F)(F)F)c1	-8	75	88	106
COC(=O)c1nnn(CC(=O)Nc2ccc(OC)cc2)c1N	.	97	95	107
Cc1c(/C=C(\C#N)C(=O)Nc2cccc(Cl)c2)c2ccccc2n1Cc1ccccc1	-24	98	87	130
CC(C)c1ccc(-c2c(C#N)c(N)nc(SC3CCCCC3=O)c2C#N)cc1 (stereo not given)	-29	.	.	104
O=C(Nc1ccc(Cl)cc1)Nc1nc(SCc2ccccc2)ns1	-18	.	.	97
CCC(C)NC(=O)c1cccc(Nc2ccnc(-c3cccc(C)c3)n2)c1 (stereo not given)	-12	.	.	102
O=c1c2cn(Cc3ccc(F)cc3)c3ccc(F)cc3c-2nn1Cc1ccccc1F	3	.	.	101
CC1CCN(c2nc3ccc(C(=O)NC4CCCCC4)cc3s2)CC1	-14	.	.	99
CN1CCC(N(C)C(=S)Nc2ccccc2)CC1	0	112	78	105
O=C(CC(O)(c1ccccc1)C(F)(F)F)c1cccs1 (stereo not given)	-22	96	84	101
CCn1ncc2c1N1COCN(C2)c2c(cnn2CC)C1	-23	99	85	.
COc1ccc(NC(=O)C2CCCN(S(=O)(=O)c3c(C)n[nH]c3C)C2)cc1OC (stereo not given)	5	105	102	101
CC(=O)N(CN1C(=O)CCC1=O)c1ccc(Cl)c(Cl)c1	-17	105	89	97
COc1ccc(NC(=O)C(Cc2ccccc2)NS(=O)(=O)c2ccc(Br)s2)cc1OC (stereo not given)	1	105	96	99
COC(=O)c1ccc(-n2c(/C=C\c3cccc(Br)c3)nc3ccccc3c2=O)cc1	.	134	93	112
COc1ccc(OC)c(S(=O)(=O)NNC(=S)Nc2ccc3c(c2)OCO3)c1	-13	119	95	100
CN(CCc1noc(C2CCCCC2)n1)S(=O)(=O)c1ccc2c(c1)CCCC2	-12	.	.	109
COCCN(C(=O)c1noc2c1CCCCC2)C1CCN(C(C)=O)CC1	-34	101	89	100
O=C(Cc1ccccc1)c1cc(O)c(O)cc1O	-51	62	41	102
COc1cc2c3c(c1OC)C1(C=CC(=O)C=C1)CC3N(C(C)=O)CC2 (stereo not given)	-8	100	90	108
Cc1ccccc1C(=O)Nc1cccc(C(=O)OCc2cc(=O)n3c(C)csc3n2)c1	.	85	77	99
N#C/C(=C\c1ccc(O)cc1)C(=O)NCC1CCCO1 (stereo not given)	.	101	88	99
CC(C)n1cnc2nc(CSc3ccccc3NC(=O)C3CC3)cc(=O)n21	-23	.	.	95
CC(=O)N1c2ccc(S(=O)(=O)NC(Cc3ccccc3)C(=O)N3CCCCC3)cc2CC1C (stereo not given)	-34	91	78	98
O=C(Nc1ccccc1)c1cnc(-c2ccc3c(c2)CCO3)s1	-1	116	94	106
O=c1c2c(-c3ccccc3)csc2ncn1-n1cccc1	-18	118	81	.
CCOc1ccc(NC(=O)COC(=O)c2cccc(OC)c2)cc1	-8	90	88	.
Cc1cccc(NC(=O)CNC(=O)CSc2nnnn2-c2ccccc2)c1C	-25	86	92	.
COC(=O)C1CCN(C(=O)CCOc2ccc(OC)cc2)CC1	-11	95	82	104
Cn1nc(C(=O)NCCC2=CCCCC2)c2c1-c1cc(Cl)ccc1SC2	9	.	.	105
NNc1ncnc2ccccc12	-31	61	51	.
CCN(CCN(C)C)C(=O)Cn1ncc2c([nH]c3ccc(C)cc32)c1=O	.	106	90	110
NCCSc1nnc2c(n1)[nH]c1ccccc12	-78	122	53	98
Cc1cccc(CC2SC(=Nc3ccccc3)NC2=O)c1 (stereo not given)	-10	.	.	98
CCc1ccc(C(=O)c2cn(CC(=O)Nc3ccc(F)cc3)c3ccc(F)cc3c2=O)cc1	-3	93	86	100
COc1ccc(-c2nnc(SCC(=O)NC3CCCCC3)nc2-c2ccc(OC)cc2)cc1	.	119	100	109
c1ccc(-c2cccnn2)cc1	-13	102	90	97
COc1ccc(NC(=O)c2cnn(-c3ccc(C)c(C)c3)c2C2CCNCC2)cc1OC	.	105	92	99

Compound profiles, from the list above. Order of values: HCMV NEC inh, Sa growth inh, Sa growth inh second temp, GIV-Gai inh
Entry for `COc1ccc(-c2nnc(SCC(=O)NC3CCCCC3)nc2-c2ccc(OC)cc2)cc1` : ., 119, 100, 109
Entry for `c1ccc(-c2cccnn2)cc1` : -13, 102, 90, 97
Entry for `Cc1cccc(NC(=O)CNC(=O)CSc2nnnn2-c2ccccc2)c1C` : -25, 86, 92, .
Entry for `COc1ccc(NC(=O)c2cnn(-c3ccc(C)c(C)c3)c2C2CCNCC2)cc1OC` : ., 105, 92, 99
Entry for `NNc1ncnc2ccccc12` : -31, 61, 51, .

Later entries:
SMILES	HCMV NEC inh	Sa growth inh	Sa growth inh second temp	GIV-Gai inh
CC(C)(C)/C(N)=N/S(=O)(=O)c1cc(C(F)(F)F)cc(C(F)(F)F)c1	10	100	107	101
COc1ccc(C2CC(c3ccc(OC)c(OC)c3)=NN2C(=O)CCCC(=O)O)cc1 (stereo not given)	-45	.	.	106
COc1ccc(-c2csc(/C(C#N)=C(\O)CSc3nccn3C)n2)cc1OC	-37	104	96	.
O=C(NCc1ccccc1Cl)c1cccn1-c1nnc(N2CCCCC2)s1	.	82	86	100
CCC1=CC(C)(CC)Nc2cc(C)ccc21 (stereo not given)	3	101	97	.
O=C(C1=CC2Cc3ccccc3C2C=C1)c1cccc(Br)c1 (stereo not given)	5	80	88	.
O=C(NN=C(c1ccccc1)c1ccccc1)c1ccco1	1	93	80	106
O=C(O)C(Cc1c[nH]c2ccccc12)Nc1ncnc2c1oc1ccccc12 (stereo not given)	-4	104	92	104
O=C(NCc1ccccn1)c1ccc2c(c1)CCN2S(=O)(=O)c1ccc(Cl)cc1	-14	96	72	104
O=C(NCCN1CCOCC1)c1cc2ccccc2oc1=O	-70	86	84	97
CC(=O)NCCCc1[nH]n(-c2ccccc2)c(=O)c1NC(=O)c1ccccc1	65*	93	89	.
C=CCn1c(=O)c2ccccc2n2c(SCc3c(C(=O)OC)sc(N)c3C(=O)OC)nnc12	-40	65	88	.
CC(C)C(=O)Nc1ccccc1C(=O)O	-2	109	94	105
Cc1ccc(CC(C(=O)O)C(C)C(=O)Nc2ccc(F)cc2)cc1 (stereo not given)	.	87	87	103
NC(=O)c1cc2c([nH]c1=O)CCCCCCCCCC2	-5	96	113	89
O=C(Nc1cccc(C(F)(F)F)c1)Nc1nnc(N2CCCCC2)s1	-13	114	91	98
COc1ccccc1OC(C)c1nc2c3ccccc3ncn2n1 (stereo not given)	-14	.	.	106
O=C(Cn1c(CO)nc2ccccc21)NCC(F)(F)F	-5	77	104	.
Cc1ccnc(NC(c2ccsc2)c2cc(C)sc2NC(=O)c2ccccc2)c1 (stereo not given)	-14	.	.	112
O=S1(=O)CCC(NC(=S)Nc2ccccn2)C1 (stereo not given)	-1	107	97	102
N#CC(=C1C(=O)c2ccccc2C1=O)c1nc2ccccc2[nH]1	-34	17	11	.
CC(Oc1ccccc1)c1nn2c(-c3cccnc3)nnc2s1 (stereo not given)	-24	102	73	102
Cc1ccc(CNC(=O)c2nc(SCc3ccccc3F)ncc2Cl)cc1	-14	95	93	107
COc1ccc(OC)c(NC(=O)c2sc3nc(C)nc(N4CCN(c5ccccn5)CC4)c3c2C)c1	-18&-13	.	.	105&93
CCCCNC(=O)c1sc(-n2[nH]c(C)c(Cc3ccc(Cl)cc3)c2=O)nc1C	-16	.	.	103
OC1CCN(c2ncc(C(F)(F)F)cc2Cl)CC1	-17	.	.	98
CCOC(=O)CC(NC(=O)CCc1c(C)nc2ncnn2c1C)c1ccc(C)cc1 (stereo not given)	-2	105	94	101
CCn1c(COc2ccc(Cl)cc2Cl)nc2ccccc21	-57	96	85	106
C=C(C)Cn1c(C2CC(=O)N(c3c(C)cccc3C)C2)nc2ccccc21 (stereo not given)	-17	.	.	102
CCN(C(=O)CSCc1nc(-c2ccc(OC)c(OC)c2)no1)c1ccccc1	-2	.	.	101
Cc1csc(-c2nc(-c3ccc(C(F)(F)F)cc3)no2)c1	-15	95	89	97
O=C1CCCC(O)=C1C=Nc1cccc2ccccc12	.	124	92	100
N/C(=N\S(=O)(=O)c1ccc(Cl)cc1)Nc1nc2ccccc2o1	3	102	100	.
